Screening data from PubChem BioAssay.
Beta2AR agonist – activates human beta-2 adrenergic receptor causing internalization | P07550 | Am2.2-beta2AR cells, FAP receptor internalization, flow cytometry; reference of the scale not given here | response, % (concentration not given with the values) | actives 0.43% (n = 340,000) | AID 504454;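 active = response above a set limit, near 3 SD of response in nonfluorescent compounds, cut at about 42% in these data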;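 note: stock transfer was 100 nL into about 11 µL; a reference agonist was the positive control; negative values mostly stem from fluorescent compounds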
Target sequence (P07550 whole entry, looked up): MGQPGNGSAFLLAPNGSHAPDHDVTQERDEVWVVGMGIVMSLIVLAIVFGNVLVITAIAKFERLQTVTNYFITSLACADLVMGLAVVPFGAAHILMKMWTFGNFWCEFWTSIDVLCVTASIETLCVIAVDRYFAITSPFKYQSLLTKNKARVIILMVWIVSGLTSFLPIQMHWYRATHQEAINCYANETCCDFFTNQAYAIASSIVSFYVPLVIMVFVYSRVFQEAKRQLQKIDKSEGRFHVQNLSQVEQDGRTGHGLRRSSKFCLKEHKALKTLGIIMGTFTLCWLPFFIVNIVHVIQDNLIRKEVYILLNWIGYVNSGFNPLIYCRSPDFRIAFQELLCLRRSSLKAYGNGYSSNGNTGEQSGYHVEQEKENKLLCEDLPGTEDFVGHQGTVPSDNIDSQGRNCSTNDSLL
Calb FLC – C. albicans growth modulation with fluconazole; C. albicans CaCi-2 (fluconazole-resistant clinical isolate) + fluconazole, Alamar Blue growth, 48 h; growth inhibition, % (no concentration beside the values); actives 0.57% (n = 300,000); AID 1979;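 active = most replicates above 75%; inconclusive = exactly half above 75%; inactive = most below 75%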;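 note: all wells also contain fluconazole at 8 µg/ml as a sub-toxic cotreatment; 0% = median of DMSO wells and 100% = median of geldanamycin control wells; wells of about 8 µL received 7.5 nL stock; the first replicate is given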
Vif A3G – inhibitors of Vif binding to APOBEC3G peptide, primary screen, biochemical, TR-FRET, GST-Vif 1-94, biotin-A3G peptide, dose response retest (AID 1117319) | actives 0.57% (n = 260,000) | TR-FRET GST-Vif / biotin-A3G peptide binding; higher % means a stronger effect; test concentration not given here; strong numbers were not always called active | inhibition, %, or IC50 in µM where a hit was titrated;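 active = above the screen mean plus three standard deviations and confirmed in dose response; inconclusive = results disagree or hit not tested in dose response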;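 note: Vif residues 1-94 fused to GST binding biotinylated APOBEC3G peptide 110-148; 0% = full assay without inhibitor and 100% = GST in place of GST-Vif; retest series ran down from 100 µM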
ALR H2O2 inh – blocks human ALR sulfhydryl oxidase activity; P55789; purified ALR, DTT oxidation, H2O2 HRP-luminol luminescence; inhibition, % (test concentration not listed); actives 3.8% (n = 290,000); AID 485317;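 active = mean and each replicate at 75% or more; inconclusive = only one of the two met; inactive = neither met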;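 note: stock transfer was 7.5 nL into about 7.5 µL; 0% = neutral wells and 100% = wells with inactivated enzyme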
Target sequence (P55789 whole entry, looked up): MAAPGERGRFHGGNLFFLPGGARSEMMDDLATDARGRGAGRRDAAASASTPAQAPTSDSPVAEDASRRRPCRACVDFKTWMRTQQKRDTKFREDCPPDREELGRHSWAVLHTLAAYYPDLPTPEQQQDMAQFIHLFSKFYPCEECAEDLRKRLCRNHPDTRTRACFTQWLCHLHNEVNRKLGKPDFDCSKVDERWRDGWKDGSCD
HNF4A DNA FP – change in binding of human HNF4 alpha to DNA; actives 0.3% (n = 360,000); activity change, % at 10 µM; AID 1224865; HNF4a-FITC DNA binding, fluorescence polarization, 1 h; in the data active = activity change above about 30%, passing the limit was not always enough;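 note: controls were the assay level and a saturating level of protein; the project sought stronger binding though the title names inhibitors; some compounds called inactive have numbers as strong as hits; positive values seem to mean higher polarization but the record does not say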
Target sequence (P41235 whole entry, looked up): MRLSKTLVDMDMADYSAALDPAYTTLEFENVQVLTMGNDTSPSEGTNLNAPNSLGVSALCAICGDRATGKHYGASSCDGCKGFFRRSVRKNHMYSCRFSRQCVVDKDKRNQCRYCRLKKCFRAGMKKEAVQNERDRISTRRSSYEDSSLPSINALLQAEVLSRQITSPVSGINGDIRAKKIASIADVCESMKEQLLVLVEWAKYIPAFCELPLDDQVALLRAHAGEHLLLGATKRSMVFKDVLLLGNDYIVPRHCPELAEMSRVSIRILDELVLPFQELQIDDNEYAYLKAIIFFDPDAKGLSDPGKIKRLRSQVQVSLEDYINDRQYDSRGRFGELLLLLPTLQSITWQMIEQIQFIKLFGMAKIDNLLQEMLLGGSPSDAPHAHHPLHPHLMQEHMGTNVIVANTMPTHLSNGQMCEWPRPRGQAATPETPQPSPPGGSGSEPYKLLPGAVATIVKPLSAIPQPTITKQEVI
LANA-H2B inh – blocks KSHV LANA binding to histone H2A/H2B; actives 0.6% (n = 320,000); AID 2629; Q9QR71; inhibition, % (concentration not given with the values); cell-free LANA-H2A/H2B peptide, fluorescence polarization; in the data active = inhibition mostly above about 10%, no sharp cut-off; inactive = mostly below about 6.7%;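 note: stock transfer was 7.5 nL into about 10 µL; 0% = median of vehicle wells and 100% = median of positive control wells; one replicate is shown; the record names a cut of 25% in any replicate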
RanGTP-Impb inh – disruptors of Ran-importin-beta complex formation – biochemical, FRET, CFP-Ran, YFP-importin-beta, homogeneous, primary screen; cell-free CFP-Ran/YFP-importin-beta FRET ratio; inhibition, % (no concentration beside the values); actives 1.1% (n = 300,000);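 active = most replicates above 15%; inconclusive = exactly half above 15%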;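 note: 0% = DMSO wells and 100% = Ran loaded with GDP instead of GTP; wells of about 40 µL received 100 nL stock; the first replicate is given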
Active calls of the source: *; ? = inconclusive; . = not tested or not shown; & = joins results of further samples.

SMILES	Beta2AR agonist	Calb FLC	Vif A3G	ALR H2O2 inh	HNF4A DNA FP	LANA-H2B inh	RanGTP-Impb inh
CCn1c(NN=O)nc2ccccc21	9	80*	0%	-14	4.9	4.0	-0.9
Cc1nnc2n1-c1ccc(Br)cc1C(c1ccccc1Cl)=NC2	0	2	9%	-1	0.1	-4.1	1.7
O=c1oc2ccccc2c(O)c1[C@H]1c2ccc(O)cc2Oc2c1c(=O)oc1ccccc21	-1	-4	-12%	98*	-1.6	9.7	-1.4
O=P(N[C@@H](c1ccccc1)[C@@H]1C[C@H]1CO)(c1ccccc1)c1ccccc1	-6	33	11%	.	-1.0	0.4	5.2
COc1cc(C(=O)NN=Cc2ccc(N(CCCl)CCCl)cc2)cc(OC)c1OC	10	.	3%	.	3.3	.	.
NNP(=O)(CC(=O)c1ccccc1)c1ccccc1 (configuration not stated)	-1	3	7%	13	-2.4	0.2	-2.8
Cc1cccc(-n2c(O)c(C=NCc3cccnc3)c(=O)[nH]c2=O)c1C	0	-1	-4%	6	-2.0	-7.1	2.3
O=C(N/N=C/c1c(O)n(CCc2ccccc2)c(=O)[nH]c1=O)c1ccccc1O	10	?	30%	.	27	-4.1	6.3
COc1ccccc1CN1CCN(C(=O)COc2ccccc2)CC1	6	1	2%	-2	-1.1	2.0	-0.2
Cc1ccccc1-n1c(O)c(C=Nc2ccc(N(C)C)cc2)c(=O)[nH]c1=O	0	43	27%	92*	-2.0	4.8	1.7
CCCCC(C)C(OC(=O)CC(CC(=O)O)C(=O)O)C(CC(C)CC(O)CCCCC(O)CC(O)C(C)N)OC(=O)CC(CC(=O)O)C(=O)O (configuration not stated)	5	.	10%	-26	-6.9	1.9	.
O=C(Nc1ccc(Br)cc1)N1C[C@H]2C[C@@H](C1)c1cccc(=O)n1C2	6	-6	.	-4	3.4	1.1	2.5
CC[C@H]1CN2CCC1C[C@H]2[C@H](O)c1ccnc2ccc(OC)cc12 (some centres not stated)	7	.	.	-32	-67	-2.1	.
CC(=O)O[C@@H]1/C=C/[C@](C)(O)C[C@@H](C)C/C=C/[C@H]2[C@H](O)C(C)=C(C)[C@H]3[C@H](Cc4ccccc4)NC(=O)[C@@]123	.	1	.	-1	.	2.3	-0.3
O=c1c2ccccc2nc(-c2ccc(Cl)cc2Cl)n1-c1ccncc1	7	6	5%	-21	0.7	4.0	4.6
O=C1NC(=O)C(=Cc2ccc(SC3CCCCC3)o2)C(=O)N1	7	-6	29µM*	33	-14	3.9	-2.9
Cc1cc(/C=C2\C(=O)NC(=O)N(Cc3ccco3)C2=O)c(C)n1-c1ccc(C(=O)O)cc1	8	0	?	61	-11	-3.1	4.6
O=C(Nc1nccs1)C(Cl)(Cl)Cl	4	-4	-1%	-23	-1.9	9.9	-3.6
NCCc1c[nH]c2ccc(OCc3ccccc3)cc12	2	-1	?	-8	0.6	-2.0	-5.1
CC(C)N1C(=O)CC2(CC[N+](C)(CCOC(=O)C(O)(c3ccccc3)c3ccccc3)CC2)C1=O (configuration not stated)	-5	34	-3%&-5%	0	2.2	-2.6	-0.6
COC(=O)C1=C(c2ccc(OC)c(OC)c2)C[C@@H]2CC[C@H]1N2C(=O)N1CCC(O)CC1	4	.	.	-4	0.3	1.5	.
CN(C)CCCN=Cc1c(O)n(Cc2ccco2)c(=O)[nH]c1=O	-2	1	?	-4	-6.1	-2.5	3.0
Cc1cccc(-n2c(-c3cccs3)nc3ccccc3c2=O)c1	-3	3	?	-4	6.2	-0.6	0.0
N#Cc1ccc(NC(=O)CN2C(=O)NC3(CCCCCCC3)C2=O)cc1Cl	3	.	-12%	-4	-3.7	.	.
Cn1c(O)c(C(c2ccccn2)c2c(O)n(C)c(=S)[nH]c2=O)c(=O)[nH]c1=S	-2	10	15%	-1	-4.3	-4.4	-1.9
O=C(O)CP(=O)(O)c1ccc(Cl)cc1	6	-16	21%	-4	3.8	1.2	3.1
Cc1ccc2c(c1)=NC(=O)/C(=C/c1c(O)[nH]c(=O)[nH]c1=O)C=2	2	-3	16%	9	-1.2	-4.4	-3.3
CNC(=O)OCc1n(C)cc[n+]1C	0	?	?	1	-0.3	-0.9	2.5
Clc1ccc(CNCCc2ccc3c(c2)OCO3)cc1	-4	-17	-1%	15	-2.4	-2.4	5.0
COc1cc(CNCCc2ccc3c(c2)OCO3)cc(OC)c1OC	-4	-6	13%	.	-1.4	.	0.7
CC(=O)n1cc(C=C2C(=O)NC(=O)NC2=O)c2ccccc21	11	-8	.	.	1.1	4.3	-2.0
Cc1ccc(C(=O)C2CN(C)CC2C(=O)c2ccc(C)cc2)cc1 (configuration not stated)	-4	-5	-5%	-4	1.3	2.9	1.0
Cc1cccc(-n2c(-c3ccc([N+](=O)[O-])cc3)nc3ccccc3c2=O)c1	-19	8	10%	-5	5.3	7.8	4.6
OC1/C(=C/c2ccccc2C(F)(F)F)N2CCC1CC2 (configuration not stated)	-1	-15	-5%	-7	1.8	0.0	-1.1
Cc1cccc(CC(c2cccc(C)c2)N(C)C)c1 (configuration not stated)	6	.	1%	.	1.1	.	.
C=Cn1ccnc1P(=S)(c1ccc(Cl)cc1)c1nccn1C=C	4	0	-1%	.	1.8	0.7	-2.5
CCOC(=O)C1C(=O)N(C)C2(C)CC1c1cc(OC)ccc1O2 (configuration not stated)	10	-26	-5%	-19	7.5	1.8	5.0
O=c1[nH]c2c(c(=O)n1C1CCCCC1)CCC2	-12	-5	-2%	1	-1.4	0.9	4.1
COC(=O)C1=C(c2cccc(OC)c2OC)C[C@@H]2CC[C@H]1N2C(=O)NCc1ccc(C(F)(F)F)cc1	-7	10	.	-25	-0.8	-7.6	3.0
O=C(COc1ccccc1)c1cn(Cc2ccccc2)c2ccccc12	2	5	26%	.	20	-0.7	0.3
Cc1ccc(C(=O)n2cc(CCN3CCS(=O)(=O)CC3)c3ccccc32)cc1	-3	15	33%	-8	1.8	-1.0	-0.2
CN(C(=O)CNC(=O)OCc1ccccc1)c1ccc(Br)cc1C(=O)c1ccccc1Cl	23	-3	3%	.	-0.6	1.9	?
O=P(Oc1ccccc1)(Oc1ccccc1)C(Nc1ccccc1)c1ccccc1 (configuration not stated)	10	9	1%	2	8.6	-0.9	2.9
Cc1ccnc(NS(=O)(=O)c2ccc(N=Cc3c(O)n(C)c(=O)n(C)c3=O)cc2)n1	7	-5	28%	3	4.3	10	-3.3
C/C(Cl)=C/CC1(CN2CCCC2=O)C(=O)NC(=O)NC1=O	4	18	1%	1	3.1	2.9	-1.1
O=c1[nH]c(=O)n(CCC2=CCCCC2)c(O)c1/C=N/Nc1cccc2ccccc12	23	17	22%	3	-0.1	1.5	-20
Cc1ccc(-n2c(C)cc(/C=C3\C(=O)NC(=O)N(C)C3=O)c2C)cc1C	15	-3	32%	-26	-1.3	-2.5	6.5
CCN(CC)P(=O)(NC(=O)c1cccn1C)N(CC)CC	9	-3	-4%	-9	-0.2	-3.6	-2.7
CCCCCCn1c(=O)c(C(=O)Nc2cnccn2)c(O)c2ccccc21	15	7	.	-9	1.9	-0.8	-1.3
COc1ccc(C=C2C(=O)N(C)C(=O)N(C)C2=O)cc1CSc1ccccn1	-2	-5	-4%	8	2.8	2.7	2.1
O=C(N/N=C/c1c(O)n(CCc2ccccc2)c(=O)[nH]c1=O)c1ccccc1	8	6	9%	0	17	5.4	-3.0
CCCNS(=O)(=O)c1ccc(OCC(=O)N2CCN(Cc3ccccc3)CC2)cc1	13	-1	22%	-1	1.7	1.7	-16
CC1CCN(CC(=O)c2ccccc2Cl)CC1	-10	-12	16%	2	4.0	12	2.9
O=C(NC(=S)N1C[C@H]2C[C@H](C1)c1cccc(=O)n1C2)c1ccc(Cl)cc1Cl	-1	0	.	4	-3.1	-7.6	2.7
O=C1N[C@H](Cc2ccccc2)C(=O)N2[C@@H]3[C@H](C[C@@H]12)c1ccccc1N3OOSc1ccccc1	7	-1	.	-2	5.3	5.1	-0.7
Cc1nn(-c2ccccc2)c2c1CC1(C(=O)N(C)C(=O)N(C)C1=O)C1CCCCN21 (configuration not stated)	-6	1	-6%	10	2.1	-0.6	4.1
CN1CCN(C(=O)COc2ccc(C(C)(C)C)cc2Br)CC1	-19	1	2%	-1	-2.0	0.6	2.4
Cc1cccc(N2CCc3c2nc2ccccc2c3N)c1	4&-17	?	?	3&74	7.5&1.8	-2.9&-0.6	-0.8
COc1ccc(Cn2c(O)c(C=Nc3c(C)n(C)n(-c4ccccc4)c3=O)c(=O)[nH]c2=O)cc1	0	-10	6%	6	-1.7	0.0	2.3
CC(=O)Nc1ccccc1C(=O)OCc1cccc(F)c1	13	-2	3%	-7	-2.0	-4.8	0.1
The listing continues.
SMILES	Beta2AR agonist	Calb FLC	Vif A3G	ALR H2O2 inh	HNF4A DNA FP	LANA-H2B inh	RanGTP-Impb inh
CNC(=S)N(C)CCc1cc2c(c(OC)c1/C=C1/C(=O)NC(=O)N(C)C1=O)OCO2	3	-6	3%	.	-2.7	0.5	3.2
CC1CCCC(C)N1/N=C/c1c[nH]c2ccc(Br)cc12 (configuration not stated)	39	4	10%	99*	2.4	4.9	8.2
Nc1ncc([N+](=O)[O-])s1	11	.	.	-39	-2.4	-28	.
CCC1(Cc2ccccc2)C(=O)NC(=S)N(C)C1=O (configuration not stated)	-3	.	-7%	.	0.3	.	.
COC(=O)c1cccc(N=Cc2c(O)n(Cc3ccc(F)cc3)c(=O)[nH]c2=O)c1	-2	6	9%	-13	-0.8	1.1	-1.0
COC(=O)C1=C(c2ccc(F)cc2OCc2ccccc2)C[C@@H]2CC[C@H]1N2C(=O)NCCCOC(C)C	1	.	.	-4	-5.2	-4.5	.
Cn1c(O)c(Cc2cccc(Cl)c2Cl)c(=O)n(C)c1=O	3	6	-7%	2	-1.4	2.1	1.0
Cc1ncc(CN2CCCC(C(=O)c3sccc3C)C2)s1 (configuration not stated)	-1	-2	.	-7	0.8	-6.4	1.8
Cc1cccc(-n2c(/C=C/c3ccccn3)nc3ccccc3c2=O)c1	-6	30	.	-9	1.9	-1.3	3.2
O=S1(=O)CC2(N3CCOCC3)CCCCC21 (configuration not stated)	-4	-2	10%	-1	-2.3	-0.4	6.0
COc1ccc(SCC2CN(C)CCC2c2ccc(F)cc2)cc1 (configuration not stated)	10	-9	.	2	4.4	-1.6	-2.8
Cc1ccc(/C=C2/C(=O)NC(=O)N(C)C2=O)cc1	11	?	?	-1	3.0	-9.3	1.4
CCOC(=O)C1SC2(C(F)(F)C(F)F)CC1(O)c1c(c(OC)c3occc3c1OC)O2 (configuration not stated)	9	-6	4%	3	-1.6	-3.6	1.9
CN(C)CCc1nn[nH]n1	2	11	31%	3	-0.9	3.0	-2.6
CN(C)CCN(C(=O)COc1ccc(Cl)cc1)c1nc2cc3c(cc2s1)OCO3	-9	-5	.	5	1.1	-2.3	5.3
COc1cc(C)c(-c2nc(CN3C[C@@H]4C[C@@H](C3)c3cccc(=O)n3C4)c(C)o2)cc1C	3	12	-2%	7	0.7	-3.7	2.8
Cc1cccc(C(=O)Nc2ccc3c(c2)CC2(C(=O)N(C)C(=O)N(C)C2=O)C2CCCN32)c1 (configuration not stated)	8	-3	.	-11	16	0.1	-5.2

Single records, from the list above. Screens in order: Beta2AR agonist	Calb FLC	Vif A3G	ALR H2O2 inh	HNF4A DNA FP	LANA-H2B inh	RanGTP-Impb inh
Cc1ccc(C(=O)n2cc(CCN3CCS(=O)(=O)CC3)c3ccccc32)cc1 is entered as -3	15	33%	-8	1.8	-1.0	-0.2
CNC(=S)N(C)CCc1cc2c(c(OC)c1/C=C1/C(=O)NC(=O)N(C)C1=O)OCO2 is entered as 3	-6	3%	.	-2.7	0.5	3.2

A portion of the library; the hit share may differ from the screen's.
